# Screening results from PubChem.
# Tgondii IFNg – blocks Toxoplasma gondii growth in the presence of IFN-gamma | Toxoplasma gondii growth in IFN-gamma-treated host cells; stronger effect = lower value; reference of the scale not given here | activity change, negative = inhibition, %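 (about 20 µM by stock and volumes)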 | 3.8% of 69,000 active;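 active = below -70%; inconclusive = fit judged invalid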;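 also: host cells are HeLa cells infected with Toxoplasma gondii; parasite growth read as luciferase light; one replicate is shown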
# Active calls of the source: *; i = inactive; ? = inconclusive. Not all compounds are listed; count on the stated rates, not on these rows.
SMILES,Tgondii IFNg
CCn1cc(C(CNC(=O)Nc2ccc(OC)cc2OC)c2cccnc2)c2ccccc21 (stereo unspecified),i
CCCNC(=O)C1Cc2nc(-c3cccc(OC)c3)sc2N1C(C)C (stereo unspecified),0
CN(Cc1cc(-c2ccccc2)no1)CC1CCOC1 (stereo unspecified),12
Cc1ccc(CN2CCc3ncnc(-c4cccnc4)c3CC2)s1,-3
CCN(CC)S(=O)(=O)N1CCN(S(=O)(=O)Cc2cc(F)cc(F)c2)CC1,0
CCC(C)NC(=O)CN1C(=O)CCc2cc(S(=O)(=O)N3CCC(C)CC3)ccc21 (stereo unspecified),-6
O=C1COC2(COCCN(Cc3cccs3)C2)CN1c1cccnc1 (stereo unspecified),-2
CCC(C(=O)NCc1cc(F)cc2c(C)c(C)[nH]c12)n1cccn1 (stereo unspecified),-6
Cc1ccc(CNC(=O)c2c(O)c3ccccc3[nH]c2=O)cc1,78
COc1ccc(/C=C/C(=O)c2ccc(O)cc2O)cc1,89
CNC(=O)c1ccc(-c2ccc(CNC(=O)C3CCCN(c4ccccn4)C3)cc2)nc1C (stereo unspecified),18
CNC(=O)C[C@H]1C[C@@H]2CN(c3cc(OC)ncn3)C[C@H]2O1,54
O=C(NCCc1nc(-c2ccccc2)cs1)[C@@H]1C[C@@H]2C=C[C@H]1C2,43
COc1ccc(-c2nc(C)c(CCNC(=O)c3cccs3)s2)cc1OC,i
COc1ccc2c3c(n(C)c2c1)[C@H](CO)N(CC1CCCC1)CC31CN(C(=O)Nc2ccccc2)C1,-17
C=CCn1c2c(ccc1=O)CCN(Cc1ccc3c(c1)OCO3)CC2,1
CCN(CC)C(=O)[C@@H]1C[C@@H](N)CN1S(=O)(=O)c1cccnc1,-6
CCCN(C(=O)CC1CCC(=O)N1)C1CCCC1 (stereo unspecified),47
Cc1cc(C(=O)Nc2ccc3c(c2)C(=O)N(C)[C@H]2CC[C@H](CC(=O)NCc4ccc(-c5ccccc5)cc4)O[C@H]2CO3)no1,-62
CC(C)CNC(=O)C1Cn2ccnc2C2(CCN(C(=O)c3cccn3C)CC2)O1 (stereo unspecified),-33
NC(=O)c1ccc2nc(NC(=O)Cc3cc(Cl)c4c(c3)OCCCO4)sc2c1,17
O=C(Cc1ccc(OC(F)(F)F)cc1)N1CCc2[nH]cnc2C12CCCC2,-80*
CC(=O)N1CCC2(CC1)CN(C(=O)c1ccco1)c1ccc(C)cc12,0
CN1CCN(C(=O)C[C@@H]2CC[C@H]3[C@@H](COc4ccc(NC(=O)c5cccs5)cc4C(=O)N3C)O2)CC1,1
COc1ccccc1CN1CC[C@@H]2[C@H](CO)Nc3ccc(-c4cccc(C(=O)N(C)C)c4)cc3[C@@H]21,-34
SMILES,Tgondii IFNg
COc1ccc(OCc2nc(C(=O)N3CC4(C)CN(C)CC(C)(C3)C4)co2)cc1,1
COc1ccccc1C(=O)N1CCc2c([nH]c3ccccc23)C1c1ccc(Cl)cc1 (stereo unspecified),31
COCCC1CN(Cc2cccc(OC)c2O)CCO1 (stereo unspecified),-50
COc1ccc(NC(=O)c2ccc(-c3cccc4c3CCNC4)o2)cc1,-7
Cc1ccc(C(=O)N2CCC3(CCC3NC(=O)c3ccn(C)c3)CC2)o1 (stereo unspecified),-2
O=C(O)c1cccnc1NCC1CCCO1 (stereo unspecified),-28
Cn1nc(-c2ccc(Cl)cc2)[nH]c1=O,-70
OC[C@H]1O[C@@H](n2cnc3c(Nc4ccccc4)ncnc32)[C@H](O)[C@@H]1O,-83*
CCn1ncnc1CN1CCN(c2cc(C)nc3ccccc23)CC1,-7
CCN(C)C(=O)c1ccc(-c2cc(O)cc(CCC3CCCCN3)c2)nc1 (stereo unspecified),-42
COCC1CN(S(=O)(=O)c2cccs2)Cc2nccn2C1 (stereo unspecified),-36
COCCN1C(=O)CCc2cc(NC(=O)c3ccc(OC)cc3)ccc21,-37
CCN(Cc1nc(COC)no1)C(=O)c1ccc2nc(C)[nH]c2c1,12
C[C@]12CCC3C(CC=C4C[C@@H](O)CC[C@@]43C)C1CCC2[C@]1(C)CCC(=O)O1 (stereo partly specified),-65
CN(C)CCN(Cc1cccnc1)Cc1cn[nH]c1-c1cccs1,1
CO[C@@H](CN(C)S(=O)(=O)c1ccc(C)cc1)[C@H](C)CN([C@H](C)CO)S(=O)(=O)c1cccc(Cl)c1,47
O=C(NCCc1csc(-c2ccc(F)cc2)n1)c1ccc(Br)o1,?
CCNC(=O)c1c(N)sc2c1CCCCC2,-8
COC(=O)c1cn(C(C)C)cc(C(=O)N2CCOC(c3ccc(F)cc3)C2)c1=O (stereo unspecified),6
COc1ccc(C(=O)Nc2ccccc2C(=O)NC(Cc2c[nH]c3ccccc23)C(=O)O)cc1 (stereo unspecified),12
CC(c1cccs1)N(C)Cc1cnn2cccnc12 (stereo unspecified),-7
CC(=O)c1c[nH]c2ccc(C)cc2c1=O,13
CN(Cc1cc2n(n1)CCNC2)Cc1noc(C2CCC2)n1,-4
c1ccc(-c2nc(C3COCCN3)cs2)cc1 (stereo unspecified),38
CCc1ccccc1NC(=O)N1CCC(c2nc(C(=O)N3CCCC3)c(C)o2)CC1,5

# Continued; the last 2 above are carried over.
SMILES,Tgondii IFNg
c1ccc(-c2nc(C3COCCN3)cs2)cc1 (stereo unspecified),38
CCc1ccccc1NC(=O)N1CCC(c2nc(C(=O)N3CCCC3)c(C)o2)CC1,5
COc1ccc(CNC(=O)c2c(O)c3cccnc3[nH]c2=O)cc1,28
Cc1ncsc1-c1ccn(CC(=O)Nc2ccnn2C2CCCCC2)n1,4
CN(C)CC(=O)N1CC(=O)N2[C@H](C1)[C@@H](c1ccc(C#Cc3cccnc3)cc1)[C@@H]2CO,3
CCN1C(=O)CC(c2cnn(C)c2)C12CCN(c1ccc(C)nn1)CC2 (stereo unspecified),-17
Cc1cccc(Nc2nc(C(=O)NC3CCCC3)nc3ccccc23)c1,-65
C[C@H]1CN([C@@H](C)CO)C(=O)c2c(c3ccccc3n2C)-c2ccccc2CO[C@H]1CN(C)C(=O)Nc1ccccc1C(F)(F)F,13
CO[C@@H]1CN(C)C(=O)c2cc(NC(=O)c3ccccc3F)ccc2OC[C@H](C)N(CC2CCOCC2)C[C@H]1C,94
C=CCNc1ccccc1C(=O)N(C)Cc1nc(C)cs1,107
CCOc1ncccc1C(=O)N(C)C(C)Cc1cc(C)ccn1 (stereo unspecified),5
NCc1ccc(S(N)(=O)=O)cc1,18
Cc1ccc(C(=O)Nc2c(C(=O)N3CCCC3)[nH]c3ccccc23)cc1,18
CC1CC(=O)Nc2ccccc2N1S(=O)(=O)c1cccs1 (stereo unspecified),17
Cc1cc(C)c(S(=O)(=O)N2CCC3(CC2)NCCN=C3NCc2ccc3c(c2)OCO3)cc1C,-42
CCCc1cnc(C)nc1N1CCC(O)(c2ccc(C)cn2)CC1,-18
CCCS(=O)(=O)N1CCC2(CC1)OC(C(=O)N1CCCC1)Cn1ccnc12 (stereo unspecified),1
CC(C)CNC(=O)[C@@H]1CCS(=O)(=O)[C@H]2CN(C(=O)NCc3ccccc3)C[C@@H]12,0
CCc1ccc(CCC(=O)Nc2nc(CC(C)=O)ns2)o1,28
Cc1ccc2[nH]c3c(c2c1)CN(C(=O)C1CCCN(CC(N)=O)C1)CC3 (stereo unspecified),4
O=S(=O)(c1ccccc1)N1CC2CN(Cc3ccc(O)cc3)CC2C1 (stereo unspecified),-6
Cc1ccc2[nH]c(CN3CC=CCC3)nc2c1C,16
COc1ccc(S(=O)(=O)Nc2ccc3c(c2)C(=O)N([C@@H](C)CO)C[C@@H](C)[C@H](CN(C)Cc2ccc(C(F)(F)F)cc2)OCCCC[C@H](C)O3)cc1,-90*
COc1ccc2c(c1)OC1(O)COc3cc(OC)c(OC)cc3C1=C2 (stereo unspecified),11
CC(C)c1noc(-c2cc(=O)n(CC(=O)Nc3cccc(Cl)c3)c3ccccc23)n1,-35
O=c1c(O)c(-c2ccccc2)oc2ccccc12,38
Cc1ccc(-c2cc(Cc3ccccn3)c(=O)[nH]n2)cc1,21
SMILES,Tgondii IFNg
O=C(Nc1ccc(F)c(Cl)c1)c1c(O)c2cccnc2[nH]c1=O,69
CC[C@@H](C(=O)O)[C@@H]1O[C@@H]([C@@H](C)[C@H](O)[C@H](C)C(=O)[C@H](CC)[C@H]2O[C@]3(C=C[C@@H](O)[C@]4(CC[C@@](C)(C5CC[C@](O)(CC)[C@H](C)O5)O4)O3)[C@H](C)C[C@@H]2C)[C@@H](C)C[C@H]1C (stereo partly specified),-81*
O=C(O)c1nccnc1C(=O)NCc1csc2ccc(Cl)cc12,13
c1nc(N2CCC(N3CCCCC3)CC2)c2nc3n(c2n1)CCCC3,22
CNC(=O)CC1C(=O)NCCN1Cc1c(C)cc(C)cc1-n1cccn1 (stereo unspecified),1
O=C(c1cc2cccnc2n(Cc2ccccc2)c1=O)N(C1CCCCC1)C1CCCCC1,55
Cc1ccc(-c2cc(C3CCN(C(=O)c4cnn(C)c4)C3)[nH]n2)cc1 (stereo unspecified),3
COCC(=O)N1CCN(Cc2csc(C)n2)c2nc(C)ccc2C1,-41
CO[C@@H]1CCN(C(=O)c2cnccn2)[C@H]2CN(Cc3ccco3)C[C@@H]12,7
COc1ccc(-c2cc(C(C)=O)ccc2N2CCOCC2)c(OC)c1,-5
CCOc1ccc(C(=O)N2C[C@H]3C[C@H](O)[C@H](O)C[C@H]3C2)o1,6
Cc1ccc(NC(=O)c2ccnn2-c2ccc3ccc(-c4cccnc4)cn23)cn1,-10
CCc1nc(N2CCNC(C(=O)O)C2)ncc1C (stereo unspecified),-7
COc1ccc2[nH]cc(CCNc3ccc(S(=O)(=O)C4CCCCC4)nn3)c2c1,45
CCOC(=O)c1[nH]c(C)c(CN(Cc2ccc(C)cc2)C(=O)c2cc3ccc(OC)cc3[nH]2)c1C,100
CSc1ccc(CNC(=O)Cn2c(=O)cc(-c3nc(C)no3)c3ccccc32)cc1,17
CC1CCCN(C(=O)CCNc2c(-c3cccc(F)c3)nc3cnccn23)C1 (stereo unspecified),132
COc1ccc2cc(-c3nc(CCN(C)C(=O)c4cccn4C)no3)[nH]c2c1,-39
CN(C)C(=O)Cn1c2c(ccc1=O)CCN(Cc1cccs1)CC2,10
COCCN1CCOCC12CCN(C(=O)c1ccn(C)n1)CC2,34
Cc1cccc(-c2nc(CSc3nc(=O)c4c(C)cc(C)nc4n3C3CC3)c(C)o2)c1,91
CCCCCNC(=O)CC1Nc2c3ccccc3nc(=S)n2C1=O (stereo unspecified),-5
Brc1ccc(CSc2cccc3cccnc23)cc1,-110*
COc1cccc(-n2nnc(C(=O)NCCc3cnccn3)c2C)c1,37
CCCCN(C(=O)c1cc2cccnc2n(Cc2ccc(F)cc2)c1=O)c1ccccc1,19

# Ordered by SMILES length (ascending): 16 of the compounds above
SMILES,Tgondii IFNg
Brc1ccc(CSc2cccc3cccnc23)cc1,-110*
CCc1nc(N2CCNC(C(=O)O)C2)ncc1C (stereo unspecified),-7
COCCN1CCOCC12CCN(C(=O)c1ccn(C)n1)CC2,34
CCCCCNC(=O)CC1Nc2c3ccccc3nc(=S)n2C1=O (stereo unspecified),-5
O=C(O)c1nccnc1C(=O)NCc1csc2ccc(Cl)cc12,13
COCC(=O)N1CCN(Cc2csc(C)n2)c2nc(C)ccc2C1,-41
COc1ccc(-c2cc(C(C)=O)ccc2N2CCOCC2)c(OC)c1,-5
CNC(=O)CC1C(=O)NCCN1Cc1c(C)cc(C)cc1-n1cccn1 (stereo unspecified),1
CC1CCCN(C(=O)CCNc2c(-c3cccc(F)c3)nc3cnccn23)C1 (stereo unspecified),132
Cc1ccc(-c2cc(C3CCN(C(=O)c4cnn(C)c4)C3)[nH]n2)cc1 (stereo unspecified),3
CCCCN(C(=O)c1cc2cccnc2n(Cc2ccc(F)cc2)c1=O)c1ccccc1,19
CSc1ccc(CNC(=O)Cn2c(=O)cc(-c3nc(C)no3)c3ccccc32)cc1,17
CCOc1ccc(C(=O)N2C[C@H]3C[C@H](O)[C@H](O)C[C@H]3C2)o1,6
CO[C@@H]1CCN(C(=O)c2cnccn2)[C@H]2CN(Cc3ccco3)C[C@@H]12,7
CCOC(=O)c1[nH]c(C)c(CN(Cc2ccc(C)cc2)C(=O)c2cc3ccc(OC)cc3[nH]2)c1C,100
CC[C@@H](C(=O)O)[C@@H]1O[C@@H]([C@@H](C)[C@H](O)[C@H](C)C(=O)[C@H](CC)[C@H]2O[C@]3(C=C[C@@H](O)[C@]4(CC[C@@](C)(C5CC[C@](O)(CC)[C@H](C)O5)O4)O3)[C@H](C)C[C@@H]2C)[C@@H](C)C[C@H]1C (stereo partly specified),-81*

# Other results follow.
SMILES,Tgondii IFNg
CCO[C@H]1CO[C@@]2(CCCN(C(=O)c3ccncn3)C2)C1,-43
Cc1ccc(C(=O)N2CCc3c(nnn3C)C2COCC2CC2)o1 (stereo unspecified),0
O=C(CN1CCCCC1)Nc1nc(-c2ccccc2)cs1,-5
NC(=O)c1cnc2n1CCN(C(=O)Cn1c(C3CC3)nc3ccccc31)C2,-2
CC(C)CN1C[C@H]2COC[C@H](CC(=O)NCCc3ccccn3)[C@@H]2C1,-26
CO[C@@H]1CN(C)C(=O)c2ccc(NC(=O)c3cccc(F)c3)cc2OC[C@@H](C)NC[C@H]1C,109
CCc1cccc(CC)c1NC(=O)COc1ccc2c(c1)OC(C)(C)C=C2,13
Cc1ccc(CN2CCC(N(C)C)CC2C(=O)O)o1 (stereo unspecified),111
Cc1ccc2c(c1)CCC21CCN(CC(=O)O)CC1,-4
CCc1cc2c(=O)n(Cc3cc(=O)[nH]c(N4C[C@@H](C)O[C@@H](C)C4)n3)cnc2s1,18
CCC1(CO)CCCN1Cc1cc2ccc(C)cc2[nH]c1=O (stereo unspecified),-8
N#Cc1ccccc1SCc1ccccc1,27
CC(C)(C)c1ccc(C(=O)NCCc2csc(-c3cccc(F)c3)n2)cc1,-12
COc1cccc(C2CCCN2CC(=O)Nc2ccccc2NC(C)=O)c1 (stereo unspecified),-1
Cc1ccc(C2c3[nH]c4ccccc4c3CCN2C(=O)c2ccc(F)cc2)cc1 (stereo unspecified),i
O=C(CSc1nnc(Cc2ccccc2)n1-c1cccc(Cl)c1)Nc1nccs1,-14
CN(C)C(=O)C[C@]12COC[C@H]1CN(CCOCc1ccccc1)C2,87
Cn1c2c(ccc1=O)CCN(C(=O)CCC(=O)O)CC2,6
